Vaccinia stage = Vaccinia orthopox stage-specific inhibition | activity change (mCherry), % (concentration not given with the values) | 89,000 tested, 0.01% active | Vaccinia-infected cells, mCherry/Venus stage reporter fluorescence; stronger effect = lower value; some inactives read as strong as hits;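 active means mCherry past -33% and 40 or more points under the early reporter, replicates agreeing; inconclusive means past -33% without that gap or agreement; tested in A549 cells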;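 further: scaled between vehicle wells and reference inhibitor wells; 23 nL library stock went into each well; one replicate is shown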
Vaccinia stage Venus = second read-out of Vaccinia stage, no call of its own (marks repeat the call); activity change (Venus), %; measured here: Venus reporter, other viral stage;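 negative = less Venus signal; first of two replicates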
An asterisk follows results filed as active; ? = inconclusive; / = no result given; & = joins results of further samples. Only part of the results is shown; rates above refer to the full screens.

Molecule	Vaccinia stage	Vaccinia stage Venus
C[C@H](CO)N1C[C@H](C)[C@@H](CN(C)Cc2ccc(C(=O)Nc3ccccc3N)cc2)Oc2ccc(NC(=O)Nc3ccc(F)cc3)cc2CC1=O	11	8
COc1ccc(NC(=O)N(C)C[C@@H]2Oc3ccc(NS(=O)(=O)c4ccc(F)cc4)cc3C(=O)N([C@H](C)CO)C[C@H]2C)cc1	20	4
CN(C)C(=O)c1cccc(-c2ccc3c(c2)[C@@H]2[C@@H](CCN2C(=O)C2CCOCC2)[C@H](CO)N3)c1	10	2
C[C@@H]1CCCCO[C@@H](CN(C)S(=O)(=O)c2ccc(Cl)cc2)[C@@H](C)CN([C@H](C)CO)C(=O)c2cc(NC(=O)Nc3ccccc3)ccc2O1	23	17
COc1ccc(S(=O)(=O)N(C)C[C@H]2Oc3ccc(NC(=O)Nc4ccc(F)cc4)cc3C(=O)N([C@H](C)CO)C[C@@H]2C)cc1	-11	-9
Cc1noc(C)c1NC(=O)Nc1ccc2c(c1)C(=O)N([C@H](C)CO)C[C@H](C)[C@H](CN(C)S(C)(=O)=O)OCCCC[C@H](C)O2	8	0
O=C(CCN1CCCCC1)NCC[C@@H]1CC[C@@H](NC(=O)C2CC2)[C@H](CO)O1	9	2
C[C@H](CO)N1C[C@H](C)[C@@H](CN(C)Cc2ccc(C(F)(F)F)cc2)Oc2ccc(NC(=O)C3CC3)cc2CC1=O	?	/
Cc1cc(C(=O)Nc2ccc3c(c2)C(=O)N(C)[C@H]2CC[C@@H](CC(=O)NCC(F)(F)F)O[C@H]2CO3)no1	-2	-1
C[C@@H]1CCCCO[C@@H](CN(C)Cc2ccncc2)[C@@H](C)CN([C@@H](C)CO)C(=O)c2cc(NC(=O)Nc3cccc4ccccc34)ccc2O1	3	4
CO[C@@H]1CN(C)C(=O)c2ccc(NC(=O)C3CC3)cc2OC[C@H](C)N(Cc2nccs2)C[C@H]1C	-3	-3
C[C@@H]1CN([C@H](C)CO)C(=O)c2cc(NC(=O)c3ccccc3)ccc2O[C@@H](C)CCCCO[C@H]1CN(C)Cc1ccc(C(F)(F)F)cc1	?	/
C[C@@H]1CN([C@@H](C)CO)C(=O)c2cc(NC(=O)Nc3ccc(C(F)(F)F)cc3)ccc2O[C@H]1CN(C)Cc1ccc(Cl)c(Cl)c1	?	/
C[C@@H]1CN([C@H](C)CO)C(=O)c2cc(NC(=O)Nc3ccc4c(c3)OCO4)ccc2O[C@@H]1CN(C)C(=O)NC1CCCCC1	-5	1
CN(C)CC(=O)N1CCCCN2[C@H](CO)[C@H](c3ccc(-c4cccnc4)cc3)[C@H]2C1	15	5
C[C@H]1CN([C@@H](C)CO)C(=O)c2cccc(NC(=O)c3ccc(-c4nccs4)cc3)c2O[C@@H]1CN(C)S(C)(=O)=O	46	22
C[C@@H]1CN([C@@H](C)CO)C(=O)c2c(c3ccccc3n2C)-c2ccccc2CO[C@H]1CN(C)Cc1ccc(-c2ccccc2)cc1	?	/
CCC(=O)N1C[C@H]2[C@@H](c3ccccc31)[C@@H](CO)N2Cc1ccccc1OC	14	-7
COc1ccc(S(=O)(=O)Nc2ccc3c(c2)C(=O)N([C@@H](C)CO)C[C@H](C)[C@H](CN(C)C(=O)Nc2ccc(C(F)(F)F)cc2)OCCCC[C@@H](C)O3)cc1	-16	-15
C[C@@H]1CN([C@H](C)CO)C(=O)c2cc(NS(=O)(=O)c3ccc(Cl)cc3)ccc2O[C@@H](C)CCCCO[C@H]1CN(C)S(=O)(=O)c1ccc(F)cc1	-13	-14
C[C@H](O)C#Cc1cnc2c(c1)C(=O)N([C@H](C)CO)C[C@@H](C)[C@H](CN(C)Cc1cccc(F)c1)O2	-7	-9
COc1ccccc1-c1cnc2c(c1)C(=O)N([C@@H](C)CO)C[C@@H](C)[C@@H](CN(C)C(C)=O)O2	12&20	-1&6
CC(C)C#Cc1cnc2c(c1)C(=O)N([C@H](C)CO)C[C@H](C)[C@@H](CN(C)C(=O)c1ccccc1F)O2	-6	-5
C[C@@H]1CN([C@H](C)CO)C(=O)c2cc(-c3ccccc3F)cnc2O[C@@H]1CN(C)C(=O)CN(C)C	22	4
O=C(C[C@@H]1C=C[C@@H](NS(=O)(=O)c2ccccc2)[C@@H](CO)O1)N1CCN(c2ccccc2)CC1	1	1
C[C@H]1CN([C@@H](C)CO)C(=O)c2cccc(NC(=O)Nc3ccc(C(F)(F)F)cc3)c2O[C@@H]1CN(C)S(=O)(=O)c1cn(C)cn1	-20	-11
CO[C@@H]1CN(C)C(=O)c2cc(NC(=O)C3CC3)ccc2OC[C@H](C)NC[C@@H]1C	3	8
COc1ccccc1-c1cnc2c(c1)C(=O)N([C@@H](C)CO)C[C@@H](C)[C@@H](CN(C)C(=O)c1cccnc1)O2	16	12
CC(C)NC(=O)N1C[C@H]2[C@@H](c3ccccc31)[C@@H](CO)N2Cc1ccccc1	1	8
COc1ccc2c3c(n(C)c2c1)[C@H](CO)NCC31CCN(C(=O)c2cccc(F)c2)CC1	-15	-9
Cc1ccc(S(=O)(=O)N(C)C[C@H]2Oc3ccc(NC(=O)Cn4cnnn4)cc3C(=O)N([C@H](C)CO)C[C@H]2C)cc1	2	2
C[C@H]1CN([C@@H](C)CO)C(=O)c2cc(C#Cc3cccnc3)cnc2O[C@@H]1CN(C)C(=O)CN(C)C	2	-1
C[C@@H]1CN([C@H](C)CO)C(=O)c2cc(NC(=O)Nc3ccc(C(F)(F)F)cc3)ccc2O[C@H]1CN(C)Cc1ccc(C(=O)Nc2ccccc2N)cc1	33	24
N#Cc1ccc(-c2ccc([C@@H]3[C@@H](CO)N4C(=O)CN(C(=O)C5CCCC5)C[C@H]34)cc2)cc1	-18	-18
O=C(C[C@@H]1C[C@H]2c3cc(NC(=O)c4ccc5c(c4)OCO5)ccc3O[C@H]2[C@H](CO)O1)NCCc1ccccc1	-14	-10
CCS(=O)(=O)Nc1ccc2c(c1)C(=O)N(C)C[C@@H](OC)[C@H](C)CN(C(=O)CN(C)C)[C@@H](C)CO2	4	8
C[C@H](CO)N1C[C@H](C)[C@H](CN(C)S(=O)(=O)c2ccccc2)Oc2ncc(C#Cc3ccccc3F)cc2C1=O	-7	-1
CCCNC(=O)N1CC(=O)N2[C@H](CO)[C@@H](c3ccc(C#Cc4cccc(OC)c4)cc3)[C@H]2C1	?	/
O=S(=O)(c1ccccc1)N1[C@@H]2CNC[C@H]1C2c1ccc(-c2ccccc2)cc1 (stereo not given in full)	17	16
C[C@H]1CN([C@@H](C)CO)C(=O)c2c(c3ccccc3n2C)-c2ccccc2CO[C@@H]1CN(C)Cc1ccc(C(F)(F)F)cc1	?	/

Molecules shown so far that have a Cl atom:
Molecule	Vaccinia stage	Vaccinia stage Venus
C[C@@H]1CCCCO[C@@H](CN(C)S(=O)(=O)c2ccc(Cl)cc2)[C@@H](C)CN([C@H](C)CO)C(=O)c2cc(NC(=O)Nc3ccccc3)ccc2O1	23	17
C[C@@H]1CN([C@@H](C)CO)C(=O)c2cc(NC(=O)Nc3ccc(C(F)(F)F)cc3)ccc2O[C@H]1CN(C)Cc1ccc(Cl)c(Cl)c1	?	/
C[C@@H]1CN([C@H](C)CO)C(=O)c2cc(NS(=O)(=O)c3ccc(Cl)cc3)ccc2O[C@@H](C)CCCCO[C@H]1CN(C)S(=O)(=O)c1ccc(F)cc1	-13	-14

(next part)
Molecule	Vaccinia stage	Vaccinia stage Venus
C[C@H](CO)N1C[C@H](C)[C@H](CN(C)Cc2ccc(Cl)c(Cl)c2)Oc2c(NC(=O)c3nc4ccccc4s3)cccc2C1=O	14	-2
C[C@@H]1CN([C@@H](C)CO)C(=O)c2cc(NC(=O)NC3CCCCC3)ccc2O[C@@H]1CN(C)C(=O)NC1CCCCC1	4	2
Cc1ccc(S(=O)(=O)Nc2ccc3c(c2)CC(=O)N([C@@H](C)CO)C[C@H](C)[C@H](CN(C)Cc2ccc(Oc4ccccc4)cc2)O3)cc1	-33	-36
CN(C)CCCNC(=O)C[C@H]1CC[C@@H]2[C@@H](COc3ccc(NC(=O)c4ccc5c(c4)OCO5)cc3C(=O)N2C)O1	8	16
C[C@@H]1CCCCO[C@@H](CN(C)C)[C@@H](C)CN([C@@H](C)CO)C(=O)c2cc(NC(=O)Nc3cccc4ccccc34)ccc2O1	-3	6
C[C@H](CO)N1C[C@H](C)[C@@H](CN(C)Cc2ccc(Oc3ccccc3)cc2)Oc2ccc(NC(=O)Cn3cnnn3)cc2CC1=O	16	11
C[C@@H]1CCCCO[C@H](CN(C)S(=O)(=O)c2ccccc2)[C@@H](C)CN([C@H](C)CO)C(=O)c2cc(NC(=O)CCCN(C)C)ccc2O1	12	-7
CC=Cc1ccc2n(c1=O)C[C@H]1[C@H](CO)[C@@H](C(=O)NC3CCC3)[C@@H]2N1Cc1cccnc1 (mixture of isomers)	19	8
COc1ccc(NC(=O)Nc2cccc3c2O[C@H](CN(C)S(=O)(=O)c2ccccc2)[C@H](C)CN([C@@H](C)CO)C3=O)cc1	-20	-14
C[C@@H]1CN([C@@H](C)CO)C(=O)c2cccc(NS(=O)(=O)c3cccs3)c2O[C@H]1CN(C)S(=O)(=O)c1ccccc1	23	22
Cc1ccc(S(=O)(=O)N(C)C[C@@H]2OCCCC[C@@H](C)Oc3ccc(NC(=O)Nc4c(C)noc4C)cc3C(=O)N([C@H](C)CO)C[C@H]2C)cc1	-4	-2
CO[C@@H](CN(C)S(=O)(=O)c1cccc(Cl)c1)[C@@H](C)CN([C@@H](C)CO)S(=O)(=O)c1ccc(Cl)cc1	?	/
COC(=O)C[C@@H]1CC[C@@H]2[C@H](COC[C@H](O)CN2C(=O)Nc2ccccc2OC)O1	-6	-8
Cc1noc(C)c1NC(=O)Nc1ccc2c(c1)C(=O)N([C@@H](C)CO)C[C@H](C)[C@@H](CN(C)S(C)(=O)=O)OCCCC[C@H](C)O2	-8	0
CCCN1C[C@H](C)[C@H](OC)CN(C)C(=O)c2ccc(NC(=O)C3CCC3)cc2OC[C@H]1C	5	7
CC=Cc1ccc2n(c1=O)C[C@@H]1[C@@H](CO)[C@H](C(=O)O)[C@H]2N1S(=O)(=O)c1ccccc1C (mixture of isomers)	3	2
CN1C(=O)c2cc(NC(=O)c3cccs3)ccc2OC[C@@H]2O[C@H](CC(=O)N3CCCCC3)CC[C@H]21	2	4
C[C@@H]1CN([C@@H](C)CO)C(=O)Cc2cc(NS(C)(=O)=O)ccc2O[C@H]1CN(C)C(=O)Nc1ccc(F)cc1	25	13
COc1ccc(C(=O)Nc2ccc3c(c2)C(=O)N(C)[C@H]2CC[C@@H](CC(=O)NCC4CC4)O[C@@H]2CO3)cc1	-5	-2
O=C(C[C@H]1CC[C@@H](NC(=O)Nc2ccc3c(c2)OCO3)[C@@H](CO)O1)NCc1ccccc1	12	9
CO[C@H]1CN(C)C(=O)c2cc(NC(=O)NC3CCCC3)ccc2OC[C@@H](C)NC[C@@H]1C	1	4
C[C@@H]1CN([C@H](C)CO)C(=O)c2cc(NC(=O)CCN3CCOCC3)ccc2O[C@H]1CN(C)Cc1ccc(C(F)(F)F)cc1	-6	-2
O=C(NCC[C@@H]1CC[C@H](NC(=O)c2ccc3c(c2)OCO3)[C@H](CO)O1)Nc1ccc(Cl)cc1	-11	-4
C[C@@H]1CN([C@H](C)CO)C(=O)c2cccc(NC(=O)Nc3ccccc3)c2O[C@H]1CN(C)Cc1ccc(C(F)(F)F)cc1	-30	-15
CC(=O)N(C)C[C@@H]1Oc2ncc(C#Cc3cccnc3)cc2C(=O)N([C@H](C)CO)C[C@H]1C	4	4
C/C=C/c1ccc2c(c1)O[C@H](CN(C)C(=O)Nc1ccc(F)cc1)[C@H](C)CN([C@@H](C)CO)S2(=O)=O	-22	-25
COc1cccc(C#Cc2ccc([C@@H]3[C@H]4CN(C(=O)Cc5cccnc5)CC(=O)N4[C@H]3CO)cc2)c1	?	/
C[C@@H](NC(=O)C[C@@H]1CC[C@H]2[C@@H](COC[C@@H](O)CN2Cc2ccc(C(F)(F)F)cc2)O1)c1ccccc1	-9	0
C[C@@H]1CCCCO[C@H](CN(C)C(=O)C2CCCCC2)[C@@H](C)CN([C@@H](C)CO)C(=O)c2cc(NS(=O)(=O)c3cn(C)cn3)ccc2O1	28	19
C[C@H](CO)N1C[C@H](C)[C@H](CN(C)C(=O)NC2CCCCC2)OCCCC[C@H](C)Oc2ccc(NS(=O)(=O)c3ccccc3)cc2C1=O	?	/
C[C@H](CO)N1C[C@H](C)[C@H](CN(C)Cc2cccc3c2OCCCO3)OCc2cnnn2CCCC1=O	8	12
COCC#Cc1ccc2c(c1)O[C@@H](CN(C)CC1CCOCC1)[C@H](C)CN([C@@H](C)CO)S2(=O)=O	12	8
CCCN(C)C[C@H]1OCCCC[C@H](C)Oc2ccc(NC(=O)CCC(F)(F)F)cc2C(=O)N([C@H](C)CO)C[C@@H]1C	4	6
C[C@H]1CN([C@@H](C)CO)C(=O)Cc2cc(NS(=O)(=O)c3cccs3)ccc2O[C@H]1CN(C)S(=O)(=O)c1ccc(Cl)cc1	-17	-18
C[C@H](CO)N1C[C@H](C)[C@H](CN(C)Cc2ccc(F)cc2)OCc2ccccc2-c2c(n(C)c3ccccc23)C1=O	5	9

In a second layout: entries from further up
Results follow in this order: Vaccinia stage	Vaccinia stage Venus
CC(=O)N(C)C[C@@H]1Oc2ncc(C#Cc3cccnc3)cc2C(=O)N([C@H](C)CO)C[C@H]1C
→ 4	4
C/C=C/c1ccc2c(c1)O[C@H](CN(C)C(=O)Nc1ccc(F)cc1)[C@H](C)CN([C@@H](C)CO)S2(=O)=O
→ -22	-25

Screening data (PubChem BioAssay)
